Bioassay records (PubChem)
AID923: qHTS Assay for Allosteric/Competitive Inhibitors of Caspase-1: Spectroscopic Profiling in AFC Spectral Region | compound fluorescence, AFC spectral region (405/520 nm); almost no hit is shown here | Potency, µM (top dose mostly 57.5 µM), for inactives: at the top dose fluorescence increase, most hits filed as activators | 75,000 compounds, 1.1% hits; active = well fitted activation curve with a large enough effect; inconclusive = small, poorly fitted or top-dose-only effect;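 also: potency is read from the fitted curve at half-maximal effect; 0% is about no effect; scaled to a free AFC standard on each plate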
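Titrations up to 57 uM read every 20 sec for 3 min (405/520 nm) with 50 nM caspase 1 and 5 uM Ac-WEHD-AFC, pH 7.5 HEPES buffer. Fluorescence-vs-time intercept gave baseline, scaled against on-plate AFC standard.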
TSHR ag: activates the human thyroid stimulating hormone receptor; AID 926; HEK293-CNG-TSHR cells (CNG channel as cAMP sensor), membrane potential dye, cAMP; Potency, µM (titrated, usually from 57.1 µM), for inactives: top-dose activation, usual class: activators; P16473; 73,000 compounds, 0.48% hits; active = well fitted activation curve of enough size with the parental cells flat; inconclusive = any curve in the parental cells; inactive = parental cells flat and receptor cells flat or falling; also: potency is read from the fitted curve at half-maximal effect; % of control where 0% means no effect; weak receptor curves with flat parental cells got no call and are not listed
Target sequence (P16473 whole entry, looked up): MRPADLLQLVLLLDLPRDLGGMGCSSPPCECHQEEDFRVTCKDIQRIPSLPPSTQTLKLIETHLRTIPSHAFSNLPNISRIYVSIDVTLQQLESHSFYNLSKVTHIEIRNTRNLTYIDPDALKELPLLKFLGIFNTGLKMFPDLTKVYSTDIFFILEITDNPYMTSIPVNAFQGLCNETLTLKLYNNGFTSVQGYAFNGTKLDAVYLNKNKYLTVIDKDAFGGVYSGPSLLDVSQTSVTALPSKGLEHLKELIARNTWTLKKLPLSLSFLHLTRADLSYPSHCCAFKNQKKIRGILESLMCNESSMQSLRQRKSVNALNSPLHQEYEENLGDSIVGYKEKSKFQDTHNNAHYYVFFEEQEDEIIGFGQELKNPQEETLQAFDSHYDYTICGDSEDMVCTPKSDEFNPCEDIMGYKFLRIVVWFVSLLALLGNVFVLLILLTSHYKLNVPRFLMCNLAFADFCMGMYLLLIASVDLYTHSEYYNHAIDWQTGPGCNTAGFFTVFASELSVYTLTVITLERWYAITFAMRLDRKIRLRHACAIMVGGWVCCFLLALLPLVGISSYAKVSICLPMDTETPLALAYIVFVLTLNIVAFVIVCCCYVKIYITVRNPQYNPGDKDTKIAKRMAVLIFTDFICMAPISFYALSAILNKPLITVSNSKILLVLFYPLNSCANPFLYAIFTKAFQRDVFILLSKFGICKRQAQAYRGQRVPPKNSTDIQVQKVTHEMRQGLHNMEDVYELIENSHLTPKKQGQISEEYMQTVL
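cAMP rise detected as CNG-channel membrane depolarization by fluorescent dye (emission 590 nm), 30 min after compound, following 60 min dye loading containing 100 uM RO 20-1724 at room temperature. Cells: TSHR/CNG HEK 293, with parental CNG HEK 293 as control.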
A488 fluor: compound autofluorescence in A488 spectral region. compound autofluorescence, A488 spectral region, dye equivalency; active compounds read high. max dye equivalency, M. 59,000 compounds, 0.1% hits; active = above 10 nM dye equivalent; inconclusive = 1 to 10 nM; inactive = 1 nM or less; about half of its hits are not listed in these tables;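 also: highest value over a series up to 38 µM; compound alone in buffer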
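Read-out: relative fluorescence at 480/540 nm, expressed as Alexa 488 dye-equivalent concentration from a six-point A488 standard included per plate. Conditions: 100 mM Tris, pH 8.0; 15 min incubation, room temperature.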
Resorufin autofl: compound fluoresces in the resorufin spectral region. Compound fluorescence, resorufin region 547/598 nm, buffer; active compounds read high. max dye-equivalent concentration, M. 59,000 compounds, 0.04% hits. AID 588; active = above 10 nM dye equivalent; inconclusive = 1 to 10 nM; inactive = 1 nM or less; a few of its hits are not listed in these tables; also: highest value over a series up to 38 µM
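Compounds in 100 mM Tris, pH 8.0, incubated 15 min at room temperature, then fluorescence read at 547 nm excitation/598 nm emission. Signal converted to dye-equivalent concentration via an on-plate six-point resorufin standard curve, per compound concentration.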
A647 fluor: compound fluoresces in the A647 spectral region | max dye-equivalent concentration, M | 59,000 tested, under 10 active | Compound fluorescence, A647 channel (570/671 nm), Tris buffer; active means above 1 µM dye equivalent; inconclusive means 0.1 to 1 µM; inactive means 0.1 µM or less;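 also: values scaled relative to a standard on each plate; highest value over a series up to 38 µM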
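Compound fluorescence was measured in 100 mM Tris buffer, pH 8.0, after 15 min at room temperature, using 570 nm excitation and 671 nm emission filters. Signal was normalized to a per-plate Alexa 647 standard curve and expressed as dye-equivalent concentration at each compound concentration.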
* marks the source's active call; other numbers are inactive results; i = inactive; ? = inconclusive; · = not tested or not shown; [ ] = dose if it differs, or a comment. These rows are one share of the data. The share of hits here may be higher or lower than overall.

Results follow in this order: A647 fluor | A488 fluor | TSHR ag | Resorufin autofl | AID923
> CC1CCCCN1C(=O)C1CC(c2ccc(F)cc2)=NO1 (centres undefined)
  7.7e-09 | i | 18% | i | -0.4%
> CCOC(=O)CNC(=O)C(Cc1ccccc1)NS(=O)(=O)c1cccs1 (centres undefined)
  1e-09 | i | 29% | i | 1.1%
> COc1ccc(-c2nc3cnc(OC)nc3n(C3CC3)c2=O)cc1
  3.7e-08 | i | 2% | i | 0.1%
> Cc1cc(C)nc(N2C(=O)CC(C(C)c3ccccc3)C2=O)n1 (centres undefined)
  2.6e-09 | i | -9% | i | -1.6%
> CCN1C(=O)/C(=C2\SC(N3CCCCC3)=NC2=O)c2ccccc21
  1.6e-08 | i | -21% | i | -1.2%
> COc1cc(SC)ccc1C(=O)NCC1CCCO1 (centres undefined)
  1e-09 | i | 6% | i | -1.8%
> Cc1ccc2c(c1)nnn2C1CCN(CC(=O)Nc2ccc3c(c2)OCCO3)CC1
  1e-09 | i | 14%[11.4 µM] | i | 0.2%
> Cc1cccc(C)c1NC(=O)c1ccc(-n2cnnn2)cc1
  1e-08 | i | -2% | i | -1.0%
> O=C(NCc1cccs1)c1ccccc1F
  · | · | 5% | · | 2.2%
> COc1ccccc1-c1cc(C(F)(F)F)nc(S(=O)(=O)CCCC(=O)N2CCOCC2)n1
  1e-09 | i | -5% | i | -1.1%
> CNC(=O)c1c(NC(=O)c2ccc(S(=O)(=O)N3CCOCC3)cc2)sc2c1CCC2
  · | · | 4% | · | 0.0%
> COc1ccc(CNS(=O)(=O)c2ccc(C3CNC(=O)C3)cc2)cc1 (centres undefined)
  2.4e-09 | i | · | i | -1.1%
> NC(=O)CSc1nnnn1-c1ccc(OC(F)(F)F)cc1
  1.4e-08 | i | 5%[11.4 µM] | i | -3.2%
> COc1nc(N)nc(N2CCOCC2)n1
  4.9e-09 | i | -1% | i | -0.1%
> Cc1c(C(N)=O)sc2nc(-c3ccccc3)cn12
  7.8e-09 | i | -1% | i | 0.6%
> COCCN(CC(=O)NCc1ccccc1)C(=O)CCC(=O)Nc1nccs1
  3.9e-09 | i | 13% | i | -0.2%
> O=C(COc1ccc(Cl)cc1Cl)N(Cc1ccco1)C1CCS(=O)(=O)C1 (centres undefined)
  5.7e-09 | i | ? | i | 2.6%
> CCOC(=O)c1c(-c2ccc(C)o2)csc1NC(=O)CSc1nnc(C)s1
  2.4e-08 | i | ? | i | 2.5%
> O=C(N1CCOCC1)N(Cc1cccs1)C1CCCC1
  1e-09 | i | 8% | i | 0.0%
> CCOC(=O)c1csc(NC(=O)c2ccc(OC)c(OC)c2)n1
  1e-09 | i | 0%[11.4 µM] | i | 0.6%
> CCOC(=O)C1CCN(C(=O)N(C)C)CC1
  1e-09 | i | 17% | i | 0.7%
> Cc1nnc(SCCn2c(N3CC(C)CC(C)C3)nc3c2c(=O)[nH]c(=O)n3C)s1 (centres undefined)
  9.8e-09 | i | 0% | i | 1.3%
> COc1ccccc1N1CCN(Cc2nc(N)nc(Nc3ccccc3)n2)CC1
  1e-09 | i | 1% | i | 1.9%
> CC1(C)Cc2ccccc2-c2nc(NCCCO)n(-c3ccccc3)c(=O)c21
  · | · | -1%[11.4 µM] | · | -2.3%
> COc1cc(C)c(S(=O)(=O)N2CCCC2)cc1C
  1e-09 | i | 13% | i | 1.5%
> COC(=O)c1cc(CC(=O)c2ccc(O)cc2O)c(C)o1
  1e-09 | i | -1% | i | -0.1%
> O=C(O)CCc1ccc(-c2ccc(F)cc2)n1CC(=O)O
  2.6e-08 | i | -1% | i | 9.4%
> Cc1cc(C)c(S(=O)(=O)N(CC(=O)NCc2cccnc2)C2CCCCC2)c(C)c1
  1e-09 | i | 9% | i | 1.8%
> O=C(N1CCOCC1)N1CCN(CC(O)COc2ccc3ccccc3c2)CC1 (centres undefined)
  1.6e-08 | i | 4% | i | -0.7%
> CC(NC(=O)Nc1ccc(O)cc1)(C(F)(F)F)C(F)(F)F
  1e-09 | i | · | i | ·
> CN(C)CCN1C(=O)C(=O)/C(=C(/O)c2ccc(S(=O)(=O)N3CCOCC3)cc2)C1c1ccccc1 (centres undefined)
  · | · | 0%[11.4 µM] | · | 0.6%
> CC(=O)Nc1ccc(OC(F)(F)C(F)C(F)(F)F)c(NC(C)=O)c1 (centres undefined)
  · | · | -7%[11.4 µM] | · | 1.3%
> Cc1cc(C)nc(NC2=NCC(=O)N2c2ccc(Cl)cc2)n1
  4.7e-08 | i | · | i | ·
> CSc1ccc(C(=S)N2CCN(CCO)CC2)cc1
  1.6e-08 | i | 9% | i | -1.7%
> CCCC(=O)N1CCN(c2ccc(NC(=O)c3cc4ccccc4o3)cc2)CC1
  3.1e-08 | i | -12% | i | -1.3%
> O=C(c1ccco1)n1nc(-c2ccccc2)nc1NCc1ccco1
  4.9e-08 | i | 30% | i | -2.1%
> O=C(NC1CC1)C1CCC(=O)N1C1CCCC1 (centres undefined)
  9.1e-09 | i | -9% | i | -2.0%
> CC12C(=O)N(c3cccc4cccnc34)C(=O)C1C1C=CC2C1 (centres undefined)
  · | · | 0% | · | 1.1%
> CCCCn1c(N)c(N(CCC(C)C)C(=O)CSc2nnc3ccccn23)c(=O)[nH]c1=O
  1e-09 | i | ? | i | 0.7%
> CN1C(=O)SC(Nc2ccc(F)cc2)C1=O (centres undefined)
  5.4e-09 | i | -7% | i | -1.2%
> Cc1cccc(NC(=O)C2CCCN(S(=O)(=O)c3c(C)nn(C)c3C)C2)n1 (centres undefined)
  · | · | -3% | · | -2.1%
> Nn1c(SCC(=O)NC(=O)NCc2ccccc2)nnc1C1CC1
  3.2e-08 | i | 0% | i | -2.4%
> O=C(O)CCC(=O)N1CCc2cc(S(=O)(=O)Nc3ccc4c(c3)OCCO4)ccc21
  · | · | 0% | · | 0.2%
> CC1(C)NC(=O)N(CC(O)Cn2nnc3ccccc32)C1=O (centres undefined)
  6.8e-09 | i | · | i | ·
> Cc1cccn2cc(-c3ccc(S(=O)(=O)N4CCOCC4)cc3)nc12
  · | · | 10% | · | 0.3%
> O=C(NCc1ccco1)c1sc2cccc(F)c2c1Cl
  1e-09 | i | 26% | i | 1.2%
> COc1ccc(CCNC(=O)CSc2nc(N)c(C#N)c(-c3cccs3)c2C#N)cc1OC
  4.7e-09 | i | 1% | i | -1.0%
> CCC(C)Nc1nc2c(c(=O)[nH]c(=O)n2C)n1CCC(C)C (centres undefined)
  3.6e-08 | i | ? | i | -1.1%
> CN1CCCN(C(c2ccccc2)c2ccc(Cl)cc2)CC1 (centres undefined)
  2e-08 | i | · | i | ·
> Cc1ccccc1OCCCC(=O)Nc1nccs1
  1e-09 | i | 4% | i | 1.0%
> CCCCCCNC(=O)C(C#N)c1nc2ccccc2nc1N1CCOCC1 (centres undefined)
  1.5e-09 | 3e-08M* | ? | i | 1.5%
> O=C(CSc1nnc(C2CCCCC2)o1)N1CCCCC1
  3.7e-09 | i | 1% | i | 1.4%
> O=C1C(=O)N(CCCn2ccnc2)C(c2ccccn2)/C1=C(/O)c1ccccc1 (centres undefined)
  1.5e-08 | i | · | i | ·
> COc1cc(CNc2nc3ccccc3[nH]2)cc(OC)c1OC
  2.9e-08 | i | 2% | i | 0.5%
> CN1C2C=C3C(C#N)=C(N)C(C#N)(C#N)[C@@H](c4cccs4)C3C1CC2 (some centres undefined)
  3e-08 | i | · | i | ·
> CCCC(=O)N1CCN(c2ccc(NC(=O)c3cc4ccccc4o3)cc2Cl)CC1
  3.7e-09 | i | 29% | i | -0.9%
> CN(C)c1ncc2nc(-c3ccc(F)cc3)c(=O)n(C3CC3)c2n1
  4e-08 | i | 1% | i | -2.0%
> COCCOC(=O)C1=C(C)N=C2SCCC(=O)N2C1c1ccc(C(=O)OC)cc1 (centres undefined)
  5.4e-09 | i | 1% | i | -1.3%
> COc1ccc(-n2c(N)c(Br)c(=O)[nH]c2=O)cc1
  1.9e-09 | i | -6% | i | -0.3%
> Cc1nc2cnc(Oc3cccc(Cl)c3)nc2n(Cc2ccc(F)cc2)c1=O
  1e-09 | i | ? | i | 1.5%

For convenience, four of the compounds above.
Results follow in this order: A647 fluor | A488 fluor | TSHR ag | Resorufin autofl | AID923
> CC(=O)Nc1ccc(OC(F)(F)C(F)C(F)(F)F)c(NC(C)=O)c1 (centres undefined)
  · | · | -7%[11.4 µM] | · | 1.3%
> Cc1cc(C)nc(NC2=NCC(=O)N2c2ccc(Cl)cc2)n1
  4.7e-08 | i | · | i | ·
> CSc1ccc(C(=S)N2CCN(CCO)CC2)cc1
  1.6e-08 | i | 9% | i | -1.7%
> CCCC(=O)N1CCN(c2ccc(NC(=O)c3cc4ccccc4o3)cc2)CC1
  3.1e-08 | i | -12% | i | -1.3%

(cont.)
Results follow in this order: A647 fluor | A488 fluor | TSHR ag | Resorufin autofl | AID923
> CCOC(=O)c1c(NC(=O)C(F)(OC)C(F)(F)F)sc(C(=O)N2CCCCC2)c1C (centres undefined)
  2.4e-09 | i | ? | i | 0.6%
> Cc1ccc(S(=O)(=O)NCC(=O)N(CC(=O)NCc2ccco2)Cc2ccc3c(c2)OCO3)cc1
  2.1e-08 | i | 6% | i | 0.8%
> COc1ncc2nc(-c3ccccc3)c(=O)n(C[C@H]3CCCO3)c2n1
  1e-09 | i | 8% | i | 11%
> CC(C)CCn1cnc2c(cnn2-c2ccc(Cl)cc2)c1=O
  3.6e-09 | i | ? | i | -1.4%
> COc1ccc(C2C(=O)N(C3CCCCC3)CC(=O)N2Cc2ccc3c(c2)OCO3)cc1 (centres undefined)
  2.4e-08 | i | 26% | i | 0.0%
> Cc1cc(N2CCN(S(=O)(=O)c3ccc4c(c3)OCCO4)CC2)n2ncnc2n1
  3.1e-09 | i | ? | i | -2.6%
> Cc1cccc(-n2c(SCC(N)=O)nnc2-c2ccccn2)c1C
  4.5e-08 | i | 4% | i | -1.1%
> Cc1cnc(NC(=O)CSc2nnc(-c3ccncc3)n2C2CCCCC2)s1
  1e-09 | i | 9% | i | -4.0%
> CCOC(=O)c1c2n(c3ccc(O)cc13)CCCCC2
  1.2e-09 | i | 2% | i | 2.1%
> COc1ccc(CNc2nc(SC)n[nH]2)cc1OC
  1e-09 | i | 4% | i | 1.8%
> COc1ccccc1CN1CC2(CCN(C(=O)c3cccc(F)c3)CC2)C1
  2.2e-08 | i | 12% | i | 1.2%
> O=C(CCC1N=C2c3ccccc3N=C(SCc3ccc(F)cc3)N2C1=O)NCc1ccco1 (centres undefined)
  1.4e-08 | i | ? | i | 0.8%
> COc1ccc2c(c1)C1CC(C)(NC(=O)C1C(=O)c1ccccc1)O2 (centres undefined)
  8.7e-09 | i | ? | i | 1.7%
> Cc1ccc2nc(NC3=NCN(Cc4ccccc4)CN3)nc(C)c2c1
  1e-09 | i | -2% | i | -0.2%
> O=[N+]([O-])c1ccccc1CCO
  · | · | -1% | · | -1.0%
> COc1ccc(OC)c(S(=O)(=O)N2CCC(C(=O)N3CCN(Cc4ccccc4)CC3)CC2)c1
  2.9e-08 | i | 9% | i | -2.0%
> COc1ccc(S(=O)(=O)CCC(=O)N2c3ccccc3CC2C)cc1 (centres undefined)
  2.2e-08 | i | 5% | i | -0.7%
> CCCCc1ccc(NC(=O)CC(C)=O)cc1
  · | · | -2% | · | -1.0%
> CC(=O)N1C(=O)C2(C(C#N)=C(N)Oc3c2c(C)nn3-c2ccccc2)c2ccccc21 (centres undefined)
  4.6e-09 | i | 4% | i | 0.0%

One compound at a time (already shown). Values in the order: A647 fluor | A488 fluor | TSHR ag | Resorufin autofl | AID923
`CSc1ccc(C(=S)N2CCN(CCO)CC2)cc1` as listed: 1.6e-08 | i | 9% | i | -1.7%
`Cc1cc(C)nc(NC2=NCC(=O)N2c2ccc(Cl)cc2)n1` as listed: 4.7e-08 | i | · | i | ·
